Mtb H37Rv: Confirmatory growth inhibition assay against Mycobacterium tuberculosis H37Rv, potency (AID 1949). most inactive calls were filed without a number and no value below 0 was filed. 100,000 tested, 1.6% active. one-dose inhibition, % at 10 µg/mL; IC50 in µg/mL for titrated hits;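 active means confirmed in a dose series; inconclusive means about 50% or more but not retested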;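 further: bacteria grown 7 days with compound before Alamar blue readout; 0% = untreated bacteria and 100% = reference antibiotic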
* = called active by the depositor; i = inactive; ? = inconclusive.

canonical_smiles | Mtb H37Rv
Brc1ccc(-c2nn(-c3ccccc3)cc2CNCc2ccccc2)cc1 | 1.2µg/mL*
COc1cc(C(=O)O)c(Cl)cc1OC(C)C | i
COc1ccc(S(=O)(=O)N(CC(=O)NCCC2=CCCCC2)c2ccc(F)cc2)cc1OC | i
COC(=O)C1=CN(CC(C)C)C=C(C(=O)OC)C1c1ccc(OC)c(Br)c1 | i
CN(CC(=O)NCc1ccco1)S(=O)(=O)c1ccc2ccccc2c1 | i
O=C(Nc1cc(-c2nc3ccccc3s2)ccc1Cl)c1cncc(Br)c1 | i
CCN(CC)C(=O)N1CCN(c2ccc(Cl)cc2)CC1 | 2%
COc1ccccc1OCC(=O)Nc1cccc(-c2nc3ccccc3s2)c1 | i

More records.
canonical_smiles | Mtb H37Rv
O=C(Nc1nc2c(s1)CCc1ccccc1-2)c1cccnc1 | 7%
CCOc1ccc(NC(=O)CSc2nnnn2-c2cccc3ccccc23)cc1 | 0%
CCOC(=O)N1CCN(C(=O)CN(C)S(=O)(=O)c2ccc(Cl)cc2)CC1 | 1%
CCCn1c(=S)[nH]c2ccccc2c1=O | 9%
CCOC(=O)c1c(NC(=O)c2cc([N+](=O)[O-])ccc2N2CCOCC2)sc2c1CCC2 | i
O=C(Nc1nc2ccc(S(=O)(=O)N3CCCC3)cc2s1)C1CCCCC1 | i
CC1=C(C(=O)OC(C)C)C(c2ccccc2Cl)CC(=O)N1 (stereo unspecified) | 1%
CN(Cc1ccccc1)S(=O)(=O)c1ccc(OCC(=O)NCc2ccco2)cc1 | i

Next part
canonical_smiles | Mtb H37Rv
COc1ccc2nc(NC(=O)c3cccc([N+](=O)[O-])c3C)sc2c1 | i
COc1ccc(OC)c(S(=O)(=O)N2Cc3ccccc3CC2C(=O)O)c1 (stereo unspecified) | i
O=C(c1cccc([N+](=O)[O-])c1)N1CCN(C(=O)c2ccco2)CC1 | i
O=C(CS(=O)(=O)Cc1ccccc1)Nc1nc2c(s1)CCCC2 | 0%
CCN(CC)S(=O)(=O)c1ccc(NC(=O)Cc2ccccc2)cc1 | 1%
COc1ccc(/C=C2\C(=O)NC(=O)N(c3c(C)cc(C)cc3C)C2=O)cc1O | i
COc1ccccc1N1CCN(C(=O)c2cc(-c3ccc(C(C)C)cc3)nc3ccccc23)CC1 | 46%
Cc1nn(Cc2cccc(C(=O)NC3CCCCC3)c2)c(C)c1Cl | 1%

Continuation.
canonical_smiles | Mtb H37Rv
Cc1cccc(NC(=O)c2ccccc2-c2ccccc2)c1 | i
CCc1ccccc1NC(=O)C12CCC(C)(C(=O)C1)C2(C)C (stereo unspecified) | i
O=C(NC1CCCCC1)c1ccccc1Br | i
COC(=O)C1C2C=CC3(CN(C(C)c4ccc(Br)cc4)C(=O)C13)O2 (stereo unspecified) | i
COc1ccc(-c2cc(=O)oc3cc(OC4CCCCC4=O)ccc23)cc1 (stereo unspecified) | 2%
O=c1ccc(S(=O)(=O)N(Cc2ccccc2)Cc2ccccc2)c[nH]1 | i
CC(Oc1ccc(Cl)cc1Cl)C(=O)N(C)c1ccccc1 (stereo unspecified) | i
Cn1c2c(c(=O)n(C)c1=O)C(NC(=O)COc1ccccc1)(C(F)(F)F)C(=O)N2 (stereo unspecified) | i

The listing continues:
canonical_smiles | Mtb H37Rv
COc1ccccc1C(=O)N1CCCN(C(=O)c2ccccc2OC)CC1 | i
O=C(CN(C1CCCCC1)S(=O)(=O)c1ccc(F)cc1)Nc1c(F)cccc1F | 5%
CCN(CC)C(=O)Cn1c(=O)n(Cc2ccccc2Cl)c2c1c(=O)n(C)c(=O)n2C | i
Cc1ccc2nc(-c3ccncc3)cc(C(=O)Nc3ccc(C(=O)N4CCCC4)cc3)c2c1 | 8.9µg/mL*
CCNC(=O)N1CCNC(=O)C1CC(=O)OC (stereo unspecified) | i
c1ccc(-c2cc(-c3nnc(-c4cccnc4)o3)c3ccccc3n2)cc1 | i
CCN(CC)c1ncnc2c1cnn2Cc1ccc(Cl)cc1 | 3%
Cc1nc(N)sc1-c1nnc(SC/C=C/c2ccccc2)n1C | i

Later entries
canonical_smiles | Mtb H37Rv
Cc1ccc(C(=O)Nc2cccc3c2CCCC3)cc1C | i
CN(Cc1ccccc1)C(=O)CN(c1ccc(Cl)cc1Cl)S(=O)(=O)c1ccccc1 | 3%
O=C(Cc1c(F)cccc1Cl)Nc1ccc2c(c1)OCO2 | i
COc1ccc(N(CC(=O)Nc2ccccc2OC)S(=O)(=O)c2ccc(C)cc2)cc1Cl | 2%
CC(=O)NCc1nc2ccccc2n1Cc1ccccc1 | i
O=[N+]([O-])c1ccccc1N1CCN(C(=S)c2ccccc2O)CC1 | i
Nc1ccc(C(=O)NCC2OCCc3ccccc32)cc1 (stereo unspecified) | i
O=C(O)CCc1ccc(-c2ccc(Br)cc2)n1CCC(=O)O | i

The list continues.
canonical_smiles | Mtb H37Rv
Cn1c(=O)c2c(nc(NCC3CCCO3)n2Cc2ccc(F)cc2)n(C)c1=O (stereo unspecified) | i
CCOc1cc2c(cc1OCC)C(c1ccc(OC)c(OC)c1)N(c1ccc(C(=O)O)cc1)C(=O)C2 (stereo unspecified) | i
O=C1c2ccc(-c3nc4ccccc4o3)cc2C(=O)N1Cc1ccncc1 | i
CCOc1ccc(-n2c(CCc3ccccc3)nnc2SCC(=O)Nc2ccccc2OC)cc1 | i
O=C(CC12CC3CC(CC(C3)C1)C2)NC(=S)Nc1ccc(I)cc1Cl | i
CC(=O)Nc1c(O)[nH]c2ccc(Br)cc12 | i
Cc1cc(C)nc(NS(=O)(=O)c2ccc(NC(=O)Cc3ccccc3)cc2)n1 | i
CC(NC(=O)C(F)(F)F)c1ccccc1 (stereo unspecified) | i

(list continues)
canonical_smiles | Mtb H37Rv
CC(NC(=O)c1cccc(C(F)(F)F)c1)c1ccc2c(c1)OCO2 (stereo unspecified) | i
C=Cc1ccc(COc2ccc3c(C(F)(F)F)cc(=O)oc3c2)cc1 | i
CC1(C)Oc2ccc(NC(=O)CCC3CCCC3)cc2O1 | i
COc1ccc(Cl)cc1NC(=S)NC1CCCC1 | 0%
CCN1CCCC1CNC(=O)C(=O)Nc1ccc(Cl)cc1 (stereo unspecified) | 1%
COc1ccc(OC)c(NC(=O)[C@H]2CC=CC[C@H]2C(=O)O)c1 | i
O=C1c2ccccc2S(=O)(=O)N1c1ccccc1I | i
CCC(=O)NC(=S)NNC(=O)c1ccc(NC(=O)c2ccccc2)cc1 | i

New compounds follow
canonical_smiles | Mtb H37Rv
Cc1cccc(NC(=O)CSc2nnc(-c3ccccc3)n2-c2ccc(F)cc2)c1C | i
OC1C2CN3CCN(C2)CC1(Cc1ccccc1)C3 (stereo unspecified) | 0%
CCOC(=O)c1cnc2c(ccc3[nH]snc32)c1=O | 2%
COCCSc1ccccc1C(=O)Nc1ccc(S(=O)(=O)N(C)Cc2ccccc2)cc1 | i
O=C(c1cccc(F)c1)N1CCN(C(=O)C(c2ccccc2)c2ccccc2)CC1 | i
O=C(Nc1ccc(F)c(Cl)c1)c1cc(I)ccc1Cl | ?
O=C(NCc1ccc(F)cc1)c1ccc(Br)cc1 | i
COc1ccc(OC)c(S(=O)(=O)NCc2ccncc2)c1 | i

Remaining list, next part.
canonical_smiles | Mtb H37Rv
COc1cc(C(=O)Nc2ccc(Oc3ncnc4sc(C)c(C)c34)cc2)cc(OC)c1OC | 1%
COc1cc(NC(=O)c2sc3ccccc3c2Cl)c(OC)cc1NC(=O)c1ccccc1 | i
O=C(c1ccc(CNS(=O)(=O)c2cccc(C(F)(F)F)c2)cc1)N1CCOCC1 | i
COc1ccc(C(=O)Nc2cccc3nc(C)ccc23)cc1Cl | i
Cc1ccc(-c2nnc(SCC(=O)Nc3ccc(Br)cc3F)n2C)cc1 | i
CCCCC(=O)Nc1ccc(NC(=O)COc2ccc(C)cc2C)cc1OC | 5%
CC(C)C(=O)Nc1cccc(NC(=S)NC(=O)c2ccco2)c1 | i
N#Cc1c(Nc2ccc(F)cc2)sc(C(=O)c2ccc(F)cc2)c1N | 4%

The list continues.
canonical_smiles | Mtb H37Rv
COc1ccc(C(=O)NC(=S)Nc2cc(C(F)(F)F)ccc2N2CCOCC2)cc1[N+](=O)[O-] | i
O=C(NC(=S)Nc1ccccc1N1CCCCC1)c1ccc(F)cc1Cl | 6%
CCc1ccc(C(=S)N2CCOCC2)cc1 | i
Cc1cc(NS(=O)(=O)c2ccc(Nc3nc(-c4ccc(O)c(O)c4)cs3)cc2)no1 | i
Cc1nnc(NC(=O)Cc2ccc([N+](=O)[O-])cc2)s1 | i
CC(=O)c1cccc(-n2c(CCC(=O)O)ccc2-c2ccccc2)c1 | i
COc1ccc(C2CC(c3ccc(OC)c(OC)c3)=NN2C(=O)c2ccccc2Cl)cc1 (stereo unspecified) | i
Cc1ccccc1OCC(=O)NN1CCN(C)CC1 | i

The list continues.
canonical_smiles | Mtb H37Rv
CCC(C)c1ccc(OCCCCn2ccnc2)cc1 (stereo unspecified) | 1.1µg/mL*
O=c1c2cc(I)ccc2nc(/C=C/c2cccnc2)n1-c1ccc(Cl)cc1 | i
N#C/C(=C\c1ccc(-c2ccccc2)o1)C(N)=S | 1%
Cc1ccc([N+](=O)[O-])cc1S(=O)(=O)NCCCN(C)C | i
COc1ccc(NC(=O)CCOc2ccccc2)cc1 | i
O=C(/C=C/Nc1cccc(Cl)c1)c1ccc(Br)cc1 | i
COc1ccc(C(=O)NC(=S)Nc2ccc(I)cc2)cc1OC | i
Fc1ccc(NC(=S)NCc2ccco2)cc1 | i

New compounds follow.
canonical_smiles | Mtb H37Rv
COc1ccc(NC(=O)NC2CCCc3ccccc32)cc1OC (stereo unspecified) | i
O=C(c1cccc(Cl)c1)N1CCN(Cc2ccccc2Cl)CC1 | i
COc1ccccc1NC(=O)Nc1ccc2c(c1)OCCO2 | i
COC(=O)c1ccccc1OC(=O)COc1ccc(Cl)cc1Br | i
CN(C)S(=O)(=O)c1ccc(NC(=S)NC(=O)c2ccc(-c3ccccc3)cc2)cc1 | 1%
C=CCOc1nc(N2CCCCC2)nc(N2CCOCC2)n1 | i
COC(=O)C1(c2ccccc2)CCN(S(=O)(=O)c2ccc(C)cc2)CC1 | 1%
CCc1cccc(OCCN(CC)CC)c1 | i

(list continues)
canonical_smiles | Mtb H37Rv
CC(=O)c1ccc(NC(=S)NC(=O)COc2cc(C)ccc2C)cc1 | i
O=C(NC(=S)N1CCCc2ccccc21)c1ccc(Cl)cc1 | ?
O=C(NCc1ccncc1)C(=O)Nc1ccc2c(c1)OCO2 | i
COCCN1C(=O)CC(Nc2ccc(N3CCOCC3)cc2)C1=O (stereo unspecified) | 3%
Cc1ccccc1OCC(=O)Nc1ccc(Br)c2cccnc12 | i
Cc1ccc(Cl)c2c1NC(=O)C2(O)CC(=O)c1ccc(F)cc1 (stereo unspecified) | i
O=C1CC(c2ccc(F)cc2)CC2=C1C(c1ccccc1)N=C(Nc1nc3ccccc3o1)N2 (stereo unspecified) | 48%
O=C1c2oc3ccc(F)cc3c(=O)c2C(c2cccc(O)c2)N1Cc1ccccc1Cl (stereo unspecified) | 13%

More compounds.
canonical_smiles | Mtb H37Rv
COc1cc(OC)c(C(=O)NC2CC(C)(C)NC(C)(C)C2)cc1OC | i
CCc1cc2c(=O)c(Oc3ccccc3F)c(C(F)(F)F)oc2cc1O | i
CCOC(=O)c1sc2ncnc(Nc3ccc(F)cc3)c2c1C | i
Cc1cc(C(F)(F)F)nc(N2CCN(C(c3ccccc3)c3ccccc3)CC2)n1 | i
CCOC(=O)C(O)(c1ccc(N(CC)C(C)=O)cc1)C(F)(F)F (stereo unspecified) | i
Oc1ccc(Br)cc1-c1nnc2ccc3ccccc3n12 | 1%
O=C(NCCC1=CCCCC1)c1ccc2c(=O)n(CCC3=CCCCC3)c(=S)[nH]c2c1 | i
CCCCC(CC)C(=O)Nc1nnc(Cc2ccccc2)s1 (stereo unspecified) | 3%

(cont.)
canonical_smiles | Mtb H37Rv
CCc1ccc(C2C=C(c3ccc(Br)cc3)Nc3nnnn32)cc1 (stereo unspecified) | i
Cc1ccc(S(=O)(=O)N(CC(=O)Nc2cccnc2)c2cccc(C)c2C)cc1 | i
CCOc1ccc(NC(=O)COc2ccc(C(=O)Nc3cccc(C(F)(F)F)c3)cc2)cc1 | 0%
CCc1nnc(SCC(=O)Nc2nc3ccc(C)cc3s2)o1 | i
COC(=O)Nc1nc2ccc(Br)cc2s1 | i
Cc1cc(OCCCCNC2CCCC2)ccc1[N+](=O)[O-] | i
CCOc1ccc(-c2csc3ncn(C(CC)C(=O)O)c(=O)c23)cc1 (stereo unspecified) | i
CC(=O)N1CCN(c2ccc(NCc3ccc(F)cc3)cc2)CC1 | i

The list goes on:
canonical_smiles | Mtb H37Rv
O=c1cc(-c2ccccc2)c2ccc(OCc3cccc(F)c3)cc2o1 | i
CC(C)CNC(=O)/C(=C/c1ccc(N(C)C)cc1)NC(=O)c1ccccc1 | i
COc1ccc(-n2cnc3c(sc4nccc(N(C)C)c43)c2=O)cc1 | i
N/C(=N\OC(=O)c1ccncc1)c1cccnc1 | i
COc1ccc(N2CCN(C(=O)c3ccc(C)c(Cl)c3)CC2)cc1 | i
COc1ccc(C(=O)N2CC(c3ccc(Cl)cc3)CC2=O)cc1 (stereo unspecified) | 3%
Cc1cc(C(=O)O)c(CCCN)s1 | i
Cc1c(OC(C(=O)O)c2ccccc2)ccc2c3c(c(=O)oc12)CCCC3 (stereo unspecified) | i

Screens (PubChem BioAssay)

The list is partial (hit frequency here may not be typical).
